# High-throughput results deposited in PubChem BioAssay by several laboratories.
# PABP polyA inh: PABP poly(A) RNA binding inhibitors, primary screen, biochemical, fluorescence polarization, uHTS | inhibition, % at 35 µM | Polyadenylate-binding protein 1 (Homo sapiens), P11940 | hit rate 1% among 290,000;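 active means 50% or more with normal probe brightness, or confirmed in later tests; inconclusive means above 50% with abnormal brightness, or retests that disagree; inactive means below 50% or failed in later tests; about a fifth of its hits are not listed in these tables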;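 further: calls also rest on retests at 20 µM and on dose response follow-up; controls were probe without protein and protein plus probe with vehicle; some compounds called inactive have numbers as strong as hits; many hits fall short of the cut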
# HIV Env fusion: inhibitors of HIV-1 Env-driven cell-cell fusion, primary screen, HeLa-JRFL effector, CEM21 target cells, luciferase; AID 651610, 2012; hit rate 1.1% among 360,000; inhibition, % at 12.3 µM;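 active means mean replicate inhibition score of at least 50 and every replicate individually at or above 50; inconclusive means only one of the two criteria met; inactive means mean below 50 and not all replicates reaching 50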;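 further: 0% = plate neutral controls and 100% = maraviroc near 300 nM; one replicate is shown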
# CSC inhib: cancer stem cell viability inhibitors, primary screen, luminescence. hit rate 1.1% among 300,000. inhibition, % at 7.5 µM. AID 2717, 2010. cancer stem cell-like cells viability;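 active means mean at 75% or more and at least half the replicates too; inconclusive means mean and replicates disagree; tested in HMLE shEcad cells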;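 further: 0% = median of negative and 100% = median of positive control wells; the first replicate is given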
# MT1-MMP act inh: blockers of MT1-MMP proenzyme processing, primary screen, HT1080 RFP-PRO-GFP cells, GFP/RFP fluorescence. AID 651647, 2012. Matrix metalloproteinase-14 (Homo sapiens), P50281. GFP/RFP ratio fluorescence, overnight; percent of plate control window, DMSO zero. hit rate 0.061% among 360,000. GFP/RFP ratio change, % at 20 µM;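 active means GFP/RFP ratio change of at least 30% with cell ATP level not reduced by more than half and red fluorescence within 50% of control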; further: strong numbers were not always called active
#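 Test system: HT1080 cells expressing an RFP-PRO-GFP fluorescent reporter construct / Compound dosing: single-point 20 µM compound, 1% DMSO / Schedule: cells overnight before dosing, compound overnight, 37 °C, 5% CO2 / Evaluation: GFP/RFP fluorescence ratio / Control set: DMSO and RFP-L50D-GFP cell wells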
# eIF4H inh: human eIF4H binding inhibitors, primary screen, translation initiation inhibitor project, biochemical, uHTS, fluorescence polarization | Eukaryotic translation initiation factor 4H (Homo sapiens), Q15056 | eIF4H fluorescence polarization binding assay | inhibition, % at 35 µM | hit rate 0.94% among 290,000 | AID 2012, 2009;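 active means 50% or more with normal probe brightness, or confirmed in later tests; inconclusive means above 50% with abnormal brightness, or retests that disagree; inactive means below 50% or failed in later tests; about a fifth of its hits are not listed in these tables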;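 further: calls also rest on retests at 20 µM and on dose response follow-up; 0% = protein and probe with vehicle and 100% = probe without protein; strong numbers were not always called active; many hits fall short of the cut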
# Yeast UUG start: modulators of yeast start codon fidelity, primary screen, whole organism, S. cerevisiae, single point, plate reader | S. cerevisiae UUG-firefly luciferase reporter, luminescence/redox ratio | activity score, % at 18.7 µM | hit rate 0.13% among 350,000;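 active means replicate mean at a twofold rise or more, about +100% in these data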;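 further: firefly luciferase made from a UUG start codon reports start codon fidelity; reporter light over untreated wells divided by growth signal over untreated wells; some hits fall short of that in this replicate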
# Rce1 inhib: yeast Rce1p protease inhibitors, primary screen, biochemical, fluorescence, cell-free homogeneous; CAAX prenyl protease 2 (Saccharomyces cerevisiae (strain ATCC 204508 / S288c)), Q03530; calls only; yeast membranes, quenched prenylated peptide cleavage fluorescence; hit rate 0.27% among 290,000;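 active means fall in fluorescence gain of 50% or more versus controls, with final raw signal at or below 3038400; inconclusive means same 50% fall but final raw signal above 3038400; inactive means fall in fluorescence gain under 50%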;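 further: plate controls were neutral control wells for no effect and wells lacking membranes for full effect; tested at 10 µM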
# Target sequence (Q03530 whole entry, looked up): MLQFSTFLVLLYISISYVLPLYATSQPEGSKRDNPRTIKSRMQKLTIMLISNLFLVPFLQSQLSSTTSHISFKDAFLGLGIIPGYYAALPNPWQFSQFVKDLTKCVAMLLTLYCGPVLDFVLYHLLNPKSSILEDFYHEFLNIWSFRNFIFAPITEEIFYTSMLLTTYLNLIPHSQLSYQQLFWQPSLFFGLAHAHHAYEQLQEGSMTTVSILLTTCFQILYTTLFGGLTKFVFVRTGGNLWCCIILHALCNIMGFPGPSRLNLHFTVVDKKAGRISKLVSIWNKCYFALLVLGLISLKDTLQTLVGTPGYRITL
# eIF4H inh retest: recorded beside eIF4H inh, whose call it bears; inhibition, %; compound at 20 µM; confirmation average;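 mean of two retest wells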
# PABP polyA inh retest: also measured in PABP polyA inh; calls as there; inhibition, %; compound at 20 µM; confirmation repeats;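 mean of two retest wells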
# MT1-MMP act inh RFP: also measured in MT1-MMP act inh; calls as there; RFP signal change, %; measured here: RFP expression control read;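 0 = vehicle wells; hits needed this value within 50% of zero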
# * marks the source's active call; other numbers are inactive results; i = inactive; ? = inconclusive; . = not tested or not shown.
# Start of the data: the first 2 entries, to show the layout:
SMILES,PABP polyA inh,HIV Env fusion,CSC inhib,MT1-MMP act inh,MT1-MMP act inh RFP,eIF4H inh,Yeast UUG start,Rce1 inhib,others
Cc1ccc(NC(=O)CN(C)CC(=O)Nc2sc3c(c2C(N)=O)CCC3)cc1,2,-12,7,0,-2,-10,4,i,
Cc1cc(C)n2nc(CNS(=O)(=O)c3ccc(C(C)(C)C)cc3)nc2n1,.,24,.,3,5,.,-7,.,

# This part in full (from the top)
SMILES,PABP polyA inh,HIV Env fusion,CSC inhib,MT1-MMP act inh,MT1-MMP act inh RFP,eIF4H inh,Yeast UUG start,Rce1 inhib,others
Cc1ccc(NC(=O)CN(C)CC(=O)Nc2sc3c(c2C(N)=O)CCC3)cc1,2,-12,7,0,-2,-10,4,i,
Cc1cc(C)n2nc(CNS(=O)(=O)c3ccc(C(C)(C)C)cc3)nc2n1,.,24,.,3,5,.,-7,.,
COC(=O)c1cn(-c2ccccc2)nc1-c1ccc(OC)cc1,3,26,4,-1,-2,5,.,i,
CC1(c2ccccc2Cl)NC(=O)N(CC(=O)N2CCN(S(=O)(=O)c3ccccc3)CC2)C1=O (stereo not given),.,-12,-7,0,1,.,.,i,
Cc1cccc(-n2c(C)cc(C=C3C(=O)c4ccccc4C3=O)c2C)c1,-8,.,26,1,-25,-1,-22,i,
Cc1[nH]c(C(=O)N/N=C/c2ccc(N(C)C)cc2)c(C)c1C(=O)N/N=C/c1ccc(N(C)C)cc1,?,8,12,-4,-7,3,.,i,
Cc1[nH]c2ccc(C(=O)OC(C)C(=O)NC3(C#N)CCCCC3)cc2c1C (stereo not given),.,5,-12,10,-4,.,.,i,
C=CCc1ccc(OCCCOc2ccc(C)c(C)c2)c(OC)c1,-9,.,-5,8,0,-6,2,i,
S=C(c1ccc(OCc2ccccc2)cc1)N1CCCC1,-6,-18,2,6,-9,-3,-18,i,
Cc1cc(C(=O)CCl)c(C)n1-c1ccon1,?,-160,.,.,.,7,.,i,
COc1cc(CC(=O)OCc2cccc([N+](=O)[O-])c2)cc(OC)c1OC,1,-15,15,3,3,-6,-11,i,
CCCCC(=O)Nc1cccc(NC(=O)c2ccc(Br)o2)c1,2,-1,.,6,2,-5,-8,i,
S=C(c1ccccc1)N1CCCc2ccccc21,7,-5,-14,9,1,-8,-1,i,
O=C(NCc1cccc2[nH]ccc12)C1CCC(=O)N(CCc2ccccc2)C1 (stereo not given),8,-3,-2,0,5,-4,-19,i,
CCOC(=O)C1(C)NC(c2cc(OC)c(OC)c(OC)c2)C2C(=O)N(CC)C(=O)C21 (stereo not given),2,-47,-21,1,-1,-12,-10,i,
COCCNCCCOc1ccc(Br)cc1Cl,-4,-4,11,4,-2,5,-7,i,
COc1cccc(CNC(=O)CNC(=S)N(Cc2ccccc2)Cc2ccccc2F)c1,-2,23,.,-5,-7,-2,.,i,
O=C(Cc1c(Cl)cccc1Cl)Nc1cccc(S(=O)(=O)N2CCOCC2)c1,0,-3,-9,4,-2,-4,.,i,
COC(=O)c1cc2ccsc2n1Cc1nc(-c2cccc(Cl)c2)oc1C,6,15,3,4,1,-2,5,i,
CCNc1nc2c(c(=O)[nH]c(=O)n2C)n1CCCc1ccccc1,-6,9,-9,0,2,-10,1,i,
COc1cc2c(cc1OC)C(c1cccc([N+](=O)[O-])c1)NC(=O)C2 (stereo not given),-8,1,9,1,3,10,.,i,
COc1ccccc1OCC(=O)Nc1cc(S(=O)(=O)N2CCCCC2)ccc1N1CCCCC1,2,46,0,-14,-14,12,.,i,
COc1ccc(O)c(/C=N/NC(=O)c2ccc(N3CCCC3=O)cc2)c1,-5,-8,43,5,-7,2,-17,i,
CCN(CC)S(=O)(=O)c1ccc2c(c1)c(=O)c(C(=O)NCc1cccs1)cn2C,8,.,-2,4,1,5,-20,i,
NC(=O)Nc1ccc(F)cc1,11,.,.,1,3,-1,.,i,
CCN1CCCc2cc(CN(CCN3CCOCC3)C(=O)Nc3ccc(C)c(C)c3)ccc21,8,37,-4,6,-5,10,-1,i,
CCNC(=S)NNC(=O)c1ccc(S(=O)(=O)NCc2ccco2)cc1,.,6,-12,2,-2,.,-27,.,
COc1ccc([N+](=O)[O-])cc1NS(=O)(=O)c1cc(C(=O)N2CCN(C)CC2)ccc1OC,.,7,.,-3,2,.,-4,.,
COc1ccc(NC(=O)CSc2ccccn2)c([N+](=O)[O-])c1,2,-22,-8,7,-11,22,-29,i,
CCCn1c(SCC(=O)Nc2cc(Cl)ccc2OC)n[nH]c1=O,-6,.,-3,3,-3,-5,.,i,
CCOC(=O)C1=C(c2ccccc2)Nc2ncnn2C1c1cc(OC)cc(OC)c1OC (stereo not given),13,-45,-5,4,4,4,-11,i,
Cc1ccc(C(=O)Nc2cccc(C(=O)O)c2)cc1S(=O)(=O)N1CCCCC1,17,.,-15,3,2,2,2,.,
CCN1CCCC1CNS(=O)(=O)c1cc(Br)cc2c1N(C(=O)C1CC1)CC2 (stereo not given),3,-40,-20,-9,3,3,-1,i,
O=C(c1cc(-c2cccs2)nc2ccccc12)N1CCN(CCO)CC1,.,-4,.,-3,1,.,-14,.,
CNC(=O)C(Sc1nc(C)nc2c1oc1ccccc12)C(C)=O (stereo not given),2,-76,-4,-7,2,0,-15,i,
O=C1CN2NC(=S)N(c3ccccc3)C2=CN1c1ccc(Cl)cc1,5,-129,3,1,2,-6,.,i,
CNc1nc(C)nc(-n2nc(C)cc2C)n1,-4,-206,11,-1,3,-5,-17,i,
Cn1c(=O)c2cc(NC(=O)CCc3cccc(Cl)c3)ccc2n1Cc1cccc(C(F)(F)F)c1,.,15,.,7,-2,.,-9,.,
CC(C)C[C@H]1COCCS(=O)(=O)N1Cc1ccc(Cl)c(Cl)c1,.,42,-5,0,0,.,-8,i,
C=CCNc1sc(C(=O)c2cccs2)c(N)c1C#N,-8,-37,-2,0,1,19,-10,i,
O=C(c1ccc2oc(Cc3ccc(Cl)cc3)nc2c1)N1CC[C@H](O)C1,-6,-4,3,0,2,-5,-4,i,
NC(=O)CC(NC(=O)Cc1cccc2ccccc12)c1ccc(NCCN2CCCCC2)c([N+](=O)[O-])c1 (stereo not given),-3,6,-4,5,4,-20,-7,i,
Cc1cc(C)nc(N/C(=N\S(=O)(=O)Cc2ccccc2)Nc2ccccc2Br)n1,-5,21,33,-6,-5,7,-16,i,
CC(C)Oc1ccc(CNC(=O)c2ccc3c(c2)N(C)CCS3)cc1,9,-23,14,6,1,-7,-17,i,
Cc1oc2cc3oc(=O)c(CC(=O)N[C@@H](C)C(=O)NC(Cc4ccc(Cl)cc4)C(=O)O)c(C)c3cc2c1C (stereo not given in full),17,.,6,-3,3,-5,13,i,
CC(=O)c1c(NCCc2ccccc2)nc(=S)n(-c2ccccc2)c1C,-17,10,43,5,2,-10,.,i,
c1csc(-c2nnsc2-c2nc3ccccc3[nH]2)c1,90*,19,-8,-18,-5,69*,-14,i,
Nc1ccccc1SCCS(=O)(=O)c1ccc(Cl)cc1,4,-6,1,0,6,-5,.,i,
CCOC(=O)C1=C(C)NC(C)=C(C(=O)OCC)C1C(=O)OCC(=O)N(C)Cc1ccccc1,.,19,-19,0,2,.,.,.,
O=C(CSc1nnc(CNC(=O)c2ccco2)o1)Nc1ccccc1,64,7,-21,-3,2,5,.,i,eIF4H inh retest=-7;PABP polyA inh retest=2
Cc1cc(C)c2sc(N(CCN(C)C)C(=O)CCS(=O)(=O)c3ccccc3)nc2c1,-3,5,4,4,1,-9,9,i,
Cc1ccc(S(=O)(=O)N2CCN(CC(=O)NC(=O)NCc3ccco3)CC2)cc1C,16,12,-12,-7,-2,7,.,i,
CC1(C(=O)NS(=O)(=O)c2ccc3c(c2)CCO3)CCN1C(=O)C1(c2ccc(Cl)cc2)CC1 (stereo not given),.,-1,.,0,4,.,1,.,
COC(=O)c1ccc(NC(=O)CCN2C(=O)C3CC=CCC3C2=O)cc1 (stereo not given),.,6,.,1,1,.,-7,.,
Cc1ccc(N(CC(=O)NC2CCCCC2)C(=O)CNC(=O)c2cccs2)cc1,-3,4,.,-2,-1,1,10,i,
CC1(C(=O)Nc2ccccc2)CCN1C(=O)CCc1ccc(Cl)cc1Cl (stereo not given),.,-4,.,1,-4,.,-2,.,
CCOC(=O)C1=NN(N=O)C2(CC(=O)N(c3cc(C)cc(C)c3)C2=O)C1 (stereo not given),31,15,26,0,12,15,-6,i,
COc1cccc(C(=O)NNS(=O)(=O)c2ccc(C)cc2)c1,6,6,-10,-1,3,-6,-11,i,
CN1CCN(C(=O)c2cccc(-c3ccc4nccn4c3)c2)CC1,.,32,.,0,3,.,-21,.,
CCn1ncc(Br)c1C(=O)Nc1cc(C)on1,1,-4,.,-4,3,-4,-6,i,
# Continuation:
SMILES,PABP polyA inh,HIV Env fusion,CSC inhib,MT1-MMP act inh,MT1-MMP act inh RFP,eIF4H inh,Yeast UUG start,Rce1 inhib,others
CCN[C@H]1CN(CCCOC)S(=O)(=O)c2sc(S(N)(=O)=O)cc21,.,7,-8,2,-1,.,-9,.,
O=C(N/N=C/c1ccc(Cl)c([N+](=O)[O-])c1)C1CC1,-7,-5,-2,-1,4,-18,.,i,
COC(=O)c1ccc(/C=N/NC(=O)CC(=O)NC2CCCCC2)cc1,-2,8,3,2,0,-2,-3,i,
Cc1cccc(C)c1NC(=O)C(NC=O)c1ccc(Cl)cc1 (stereo not given),-17,.,-2,6,-3,7,.,i,
Cc1ccc(-c2nc(SCC(=O)Nc3cc(S(=O)(=O)N4CCCCC4)ccc3Cl)n[nH]2)cc1,9,.,13,-9,-28,0,-17,i,
C=CCC(O)(CCN1CCCCC1)c1ccccc1 (stereo not given),12,.,-10,-2,1,-4,-8,i,
O=C(O)c1ccc(COc2ccc(Cl)cc2)o1,17,-36,0,-4,0,-5,5,i,
Cc1ccc(NC(=O)C(=O)NCc2ccco2)c(C)c1,0,-25,4,-2,-2,2,-18,i,
COc1ccc(NC(=O)c2cnc(NS(=O)(=O)c3ccccc3)nc2)cc1,9,10,-9,2,4,-6,-6,i,
CCOC(=O)C1=CN(Cc2ccco2)S(=O)(=O)N(C)C1c1ccc(C(F)(F)F)cc1 (stereo not given),.,28,.,-3,-10,.,-17,.,
CN1CCC2(CC1)NC(=O)NC2=O,-4,.,-8,-1,14,1,7,.,
CCOC(=O)c1nn(-c2ccccc2)c(C#N)c1NC(=O)c1nn(CC)cc1Br,-2,.,-4,-7,-5,-6,-25,i,
COc1ccc(-c2cc(C(=O)Nc3c(C)nn(Cc4ccc(Cl)cc4)c3C)no2)cc1,-8,-201,.,-1,-6,1,-11,i,
Cc1cc(C)c(C(=O)CSc2nnc(N)s2)c(C)c1,22,17,-17,0,-1,3,-29,i,
COc1ccccc1C(=O)N/N=C/c1ccc(Cl)s1,-4,.,-11,1,5,-4,.,i,
CC(=O)N(CC(C)(C)CC=C(C)C)c1ccccc1,2,.,-5,.,.,6,.,i,
